Assay outcomes: PubChem, National Center for Advancing Translational Sciences (NCATS)
2A firefly = lowers the firefly signal of an FMDV 2A StopGo reporter; HEK cells with a luciferase reporter of 2A StopGo recoding; Potency, µM (series often up to 57.5 µM), for the others: at the highest dose signal change, negative = less light; hit rate 0.23% among 120,000; active = well fitted falling curve with a large enough effect; inconclusive = small, poorly fitted or top-dose-only effect; inactive = no such curve, though single readings can be large or run the other way; note: nearly all actives have a fitted effect of over 60% in size; overnight with compound
StopGo RLuc = lowers the Renilla signal of an FMDV 2A StopGo reporter; HEK cells with a luciferase reporter of 2A StopGo recoding; Potency, µM (series often up to 57.5 µM), for inactives: at the highest dose signal change, negative = less light; hit rate 0.32% among 120,000; active means well fitted falling curve with a large enough effect; inconclusive means small, poorly fitted or top-dose-only effect; inactive means no such curve, though single readings can be large or run the other way; note: nearly all actives have a fitted effect of over 55% in size; overnight with compound
Active calls of the source: *; ? = inconclusive; [ ] = another dose, or the depositor's remark. % is set by controls: 0 for no effect and ±100 for the full control effect; potency is the fitted concentration of half-maximal effect. A portion of the library, so the mix of outcomes need not match the whole.

mol	2A firefly	StopGo RLuc
C[C@H](Nc1ccc(C(F)(F)F)cc1[N+](=O)[O-])C(=O)OCC(=O)NC12CC3CC(CC(C3)C1)C2	2.9%	1.8%
O=C(NCc1ccccc1)c1cc(NCc2cccnc2)ccn1	0.0%	3.6%
CCOC(=O)c1c(NC(=O)COc2ccc(C)cc2C(C)(C)C)sc2c1CCC(C)C2 (centres undefined)	0.0%	-5.7%
CC(=O)Nc1ccc(NC(=O)CSc2nc3ccccc3nc2N2CCC(C)CC2)cc1	4.3%	-2.6%
CC(C)(C)N(Cc1cn(Cc2ccccc2)nn1)S(=O)(=O)c1ccc(N2CCCCC2)cc1Br	-24.4%	88.1%[activator]
Cc1cc(C)nc(NC(c2cccs2)c2c(NC(=O)c3ccco3)sc(C)c2C)n1 (centres undefined)	102.4%[activator]	10.1%
Cc1ccc2nc(NC(=O)NC3CC(=O)N(c4ccc5c(c4)OCCO5)C3)sc2c1 (centres undefined)	-8.6%	-14.8%
CC(C)CCn1c(SCc2cccc(F)c2)nc2ccsc2c1=O	-19.8%	-11.5%
CCc1ccc2occ(CC(=O)Nc3c(C(=O)c4ccccc4)oc4ccccc34)c2c1	200.5%[activator]	225.0%[activator]
O=C1CN(CC(=O)Nc2c(Cl)cccc2Cl)CCN1	-5.5%	-5.3%
Cc1ccccc1COc1ccccc1C=O	45.7%[activator]	15.4%
CC(=O)c1c(C)oc2c1cc(NS(=O)(=O)c1ccc(C(C)(C)C)cc1)c1ccccc12	?	40.8%[activator]
N#Cc1cc2c(nc1SCCOc1ccccc1)CCCCC2	0.0%	4.1%
O=C(CSc1nc2c(cnn2-c2ccc(F)cc2)c(=O)[nH]1)Nc1ccccc1C(F)(F)F	-13.3%	-14.2%
CC(=O)Nc1ccc2nc(SCCOc3ccccc3Cl)sc2c1	53.8%[activator]	-5.5%
Cn1c(C(=O)NCc2ccccc2F)cc2oc3ccccc3c21	0.0%	?
Cc1ccc(-c2nn(CC(=O)N3CCOCC3)c(=O)c3ccccc23)cc1S(=O)(=O)N(C)C	7.4%	-0.8%
O=C(N/N=C/C(Cl)=C/c1ccccc1)c1cccs1	66.0%[activator]	22.8%
Cc1ccc(S(=O)(=O)N2CCN(c3cnn(-c4ccccc4)c(=O)c3Cl)CC2)cc1	-9.0%	-6.2%
O=C(c1cnc(N2CCCCC2)c2ccccc12)N1CCN(c2ccc(F)cc2)CC1	?	-3.3%
CCc1ccc(C(=O)CSc2nc3ccccc3c(=O)[nH]2)cc1	44.1%[activator]	-2.6%
Cc1ccccc1CN1CCC(CNC(=O)c2c(C)oc3ncnc(N4CCCCC4)c23)CC1	?	?
Cc1ccc2nc(-c3ccccc3O)c(Nc3ccccc3C)n2c1	-7.9%	-8.7%
COC(=O)c1cc2occc2n1Cc1cccc(OC)c1	20.2%	16.9%
Nc1ccc2cc(S(=O)(=O)O)cc(S(=O)(=O)O)c2c1	-6.9%	-0.8%
CCOC(=O)c1ccc2[nH]c(CSCC(=O)Nc3cccc(C(F)(F)F)c3)cc(=O)c2c1	8.9%	7.1%
Cc1ccc(C2=Nc3ccccc3N(CC(=O)Nc3ccccc3C)C(=O)C2)cc1C	108.5%[activator]	-10.3%
CC(C)C[C@@H]1COc2cc(Br)ccc2S(=O)(=O)N1Cc1cn(Cc2ccc(Cl)cc2)nn1	48.3%[activator]	18.0%
c1cc(OCc2nnc(-c3cccs3)o2)cc(-n2cnnn2)c1	13.0%	-0.9%
COC(=O)c1cccc(CN2C(=O)SC(Nc3ccc(Br)cc3)C2=O)c1 (centres undefined)	-10.4%	6.6%

Rewritten field by field: part of the list above
Compound: Cc1ccccc1CN1CCC(CNC(=O)c2c(C)oc3ncnc(N4CCCCC4)c23)CC1
  2A firefly: ?
  StopGo RLuc: ?
Compound: Cc1ccc2nc(-c3ccccc3O)c(Nc3ccccc3C)n2c1
  2A firefly: -7.9%
  StopGo RLuc: -8.7%

The listing continues:
mol	2A firefly	StopGo RLuc
COc1ccc(CCNC(=O)C(=O)NCC(c2cccs2)S(=O)(=O)c2ccc(F)cc2)cc1 (centres undefined)	?	?
O=C(Cn1nc(C(=O)O)c2ccccc2c1=O)Nc1ccc(F)c(F)c1	19.5%	4.2%
Cc1c(-c2ccc(Cl)cc2)c(=O)oc2cc(OC(=O)N3CCOCC3)ccc12	-10.1%	-5.9%
CC(=O)c1ccc(NC(=O)CN(C)S(=O)(=O)c2cc3c(cc2C)NC(=O)CO3)cc1	-6.9%	6.9%
Cc1cc(C)c2c(=O)cc(C(=O)Nc3c(C)cccc3C)oc2c1	-7.9%	21.1%
Cc1ccc(/C=C/C(=O)Nc2ccc(Cl)cc2Cl)cc1	-1.3%	4.6%
Cc1ccc(Cn2c(=O)c3ccc(C(=O)NC(C)C)cc3n3c(=O)[nH]nc23)cc1	4.6%	-1.5%
Fc1ccccc1NC(=S)NCCc1ccccn1	1.8%	124.9%[activator]
COc1cc(OC)c(C2=CCN(S(=O)(=O)N3CCCCCC3)CC2)c(OC)c1	13.1%	29.2%
COc1ccc(-c2cc(N3C(=O)Nc4ccccc4N3O)n[nH]2)c(OC)c1	-8.4%	-9.1%
Cc1nc2ccc(C(=O)OC(C)C(=O)NC(=O)NC3CCCC3)cc2nc1C (centres undefined)	134.5%[activator]	-10.3%
COc1ccc(Oc2coc3cc(OC)ccc3c2=O)cc1	85.5%[activator]	47.4%[activator]
NC(=O)C1CCN(CC(=O)Nc2oc3ccccc3c(=O)c2-c2ccc(F)cc2)CC1	14.9%	-9.6%
O=C(Cc1c[nH]c2ccccc12)NC(c1ccccc1)c1ccccc1	44.6%[activator]	16.2%
Cc1sc2nc(C(C)Sc3nnnn3C3CC3)[nH]c(=O)c2c1C (centres undefined)	18.3%	4.7%
CCc1ccc2c(CN3CCCC3c3ccc(OC)cc3)cc(=O)oc2c1 (centres undefined)	3.1%	16.2%
O=C(OCc1nnnn1-c1ccccc1)C1(c2ccccc2F)CCCC1	-7.0%	36.3%[activator]
CCOC(=O)CCCNC(=O)COC(=O)c1cc(-c2cccs2)nc2ccccc12	14.3%	-7.1%
CC(=O)Nc1ccc(OCc2ccccc2)cc1	248.1%[activator]	26.2%
COC(=O)c1c(F)c(F)c(Oc2ccc(C(C)=O)cc2)c(F)c1F	0.0%	14.0%[1.06 µM]

(next part)
Each structure is followed by: 2A firefly, StopGo RLuc
CCOC(=O)c1ccccc1NC(=O)c1c2c(nc3ccccc13)C(=O)N(C1CCCCC1)C2
  -24.1%, 10.1%
O=C(NCc1ccccn1)c1cccc2ccccc12
  0.0%, 4.8%
CC(C)CCNC(=O)C(=O)N1CCN(C(=O)c2cc3ccccc3[nH]2)CC1
  14.8%, 9.3%
Cc1nc2ccc(S(=O)(=O)NC(C(=O)N3CCN(c4ccc(Cl)cc4)CC3)C(C)C)cc2s1 (centres undefined)
  -8.9%, 11.2%
CCOC(=O)C1CCN(C(=O)Cn2c(-c3cccs3)cc3cc(Cl)ccc32)CC1
  -18.4%, -13.7%
CCCC(=O)Nc1nnc(SCc2cc(=O)n3cccc(C)c3n2)s1
  0.0%, 3.9%
COCCN(Cc1cccs1)C(=O)COc1ccc2c(C)cc(=O)oc2c1
  0.0%, 0.0%
Cc1cc(C)n(CC(=O)Nc2cc(C(F)(F)F)ccc2Cl)c(=O)c1C#N
  -3.8%, 1.1%
CN(CC(=O)NC1(C#N)CCCC1)C(c1ccccc1)c1ccccc1
  12.4%, 48.7%[activator]
Cc1c(Cl)c(CSc2nnc3ccc(C(F)(F)F)cn23)nc2ccccc12
  1.9%, 3.0%
COc1ccc(NC(=O)C2=C(C)Nc3ncnn3C2c2ccc(C)o2)cc1 (centres undefined)
  4.3%, -4.5%
CC(=O)Nc1cccc(NC(=O)C(=O)NCCc2csc3nc(-c4ccccc4F)nn23)c1
  -2.4%, -16.0%
CCOc1ccc(NC(=O)c2c(NCc3cccc(OC)c3OC)sc3c2CCC3)cc1
  5.2%, -13.8%
COc1ccc(Cl)cc1NC(=O)c1cc(=O)c2cc(C)ccc2o1
  1.9%, -1.2%
Cc1ccc(C2C=C(c3ccc(Cl)cc3)Nc3nc(NS(=O)(=O)c4ccccc4)nn32)cc1 (centres undefined)
  -14.1%, -0.8%
C=CCNC(=O)c1cc(-c2ccc(OCC)cc2)nc2ccccc12
  0.0%, -0.8%
COC(=O)c1scc(-c2ccc(C)cc2)c1S(=O)(=O)Nc1cccc(C(F)(F)F)c1
  -4.9%, 150.0%[activator]
CCC(C)NC(=O)CCCc1nnc2n(CC(C)C)c(=O)c3sccc3n12 (centres undefined)
  -4.2%, -4.7%
CCn1cc(C(=O)N2CCN(c3ccccc3)CC2)c(=O)c2cc(S(=O)(=O)N(C)C3CCCCC3)ccc21
  -23.2%, 2.8%
COC(=O)c1ccc(CN(C)C(=O)CCc2ncc(-c3ccc(F)cc3)o2)cc1
  53.0%[activator], -6.7%
O=C(COC(=O)c1ccc2ccccc2n1)NC1CC1
  -4.8%, -11.9%
CC(C)CN(CCNC(=O)CCN1N=C(c2ccccc2)CCC1=O)CC(C)C
  -18.1%, -5.6%
COc1ccccc1C(=O)Nc1ccc(-c2nc3ccccc3s2)c(C)c1
  45.9%[activator], -6.4%
CCN(CC)CCCNC(=O)CSc1nc(-c2ccc(OC)cc2)cc(C(F)(F)F)n1
  -9.5%, -12.0%
COc1cc(/C=C/C(=O)OCC(=O)N(C2=CCCCC2)C2CC2)ccc1OC(F)F
  13.3%, 0.5%
CCOc1ccc(-n2cc(-c3ccccc3)c3c(NCc4ccc(F)cc4)ncnc32)cc1
  -16.1%, -11.3%
COc1ccc(OC)c(NC(=O)C2Cc3ccccc3CN2S(=O)(=O)c2ccc(F)cc2)c1 (centres undefined)
  17.6%, 24.9%
Cc1ccccc1Nc1nc(-c2ccc([N+](=O)[O-])cc2)nc2ccccc12
  0.6%, -13.7%
COc1ccc(CNC(=O)N2CCN(S(=O)(=O)c3cccc(Br)c3)CC2)cn1
  -3.5%, 9.3%
COc1ccc(C)cc1CC(=O)OCc1ccc(C#N)cc1
  -4.7%, -12.2%

Some of these compounds in order of molecular weight, rising:
Each structure is followed by: 2A firefly, StopGo RLuc
Cc1ccccc1Nc1nc(-c2ccc([N+](=O)[O-])cc2)nc2ccccc12
  0.6%, -13.7%
CCOc1ccc(-n2cc(-c3ccccc3)c3c(NCc4ccc(F)cc4)ncnc32)cc1
  -16.1%, -11.3%
CCN(CC)CCCNC(=O)CSc1nc(-c2ccc(OC)cc2)cc(C(F)(F)F)n1
  -9.5%, -12.0%
COc1ccc(CNC(=O)N2CCN(S(=O)(=O)c3cccc(Br)c3)CC2)cn1
  -3.5%, 9.3%

Further records follow:
Each structure is followed by: 2A firefly, StopGo RLuc
Cc1ccc(S(=O)(=O)N2CCN(C(C(=O)O)c3c[nH]c4cc(Cl)ccc34)CC2)cc1 (centres undefined)
  -7.9%, -9.2%
O=S(=O)(Nc1ccc(OC(F)(F)F)cc1)c1ccc(N2CCCCS2(=O)=O)cc1
  ?, 5.4%
CC(=O)c1cccc(NC(=O)C2CCCN(C(=O)c3cnn(-c4ccccc4)c3-n3cccc3)C2)c1 (centres undefined)
  -10.4%, 6.0%
C[C@H]1COc2cc(Br)ccc2S(=O)(=O)N1Cc1cn(Cc2ccc(Br)cc2)nn1
  -4.2%, 23.0%
CN(Cc1cccc(C(N)=O)c1)C(=O)c1nn(-c2ccccc2)c(=O)c2ccccc12
  46.5%[activator], 50.2%[activator]
C=CCn1c(SCC(=O)c2ccccc2)nc2c1c(=O)n(C)c(=O)n2C
  1.8%, -0.7%
O=C(Oc1ccccc1)c1cccc(C(=O)Oc2ccccc2)c1
  9.3%[115 µM], -7.8%[129 µM]
CCC(=O)Nc1ccccc1-c1nc2ccccc2n(CC(=O)c2ccc(C)c(C)c2)c1=O
  -22.2%, -7.0%
Cc1ccc2scc(N3CCCC(C)C3)c(=O)c2c1 (centres undefined)
  270.3%[activator], 54.0%[activator]
COc1ccccc1NC(=O)CCn1nc(-c2ccccc2OC)c2c(C)cc(C)nc21
  -15.2%, 2.6%
Cc1cc(=O)n2c(C(=O)Nc3ccc(C)c(Cl)c3)c(C(=O)Nc3ccccc3)sc2n1
  -9.8%, -7.5%
COc1ccccc1C(=O)Oc1ccc2c(=O)c(-c3ccccc3OC)c(C)oc2c1
  61.7%[activator], 17.1%
COP(=O)(OC)c1nc(-c2ccc(C)cc2)oc1NCc1ccco1
  0.5%, 4.7%
O=C(/C=C/c1cccs1)N1CC=C(c2ccccc2)CC1
  165.6%[activator], 35.4%
Cc1nn2c(=O)cc(COC(=O)c3ccc(NC(=O)C4CCCCC4)cc3)nc2s1
  63.1%[activator], 17.0%
CCOC(=O)C1=CN(c2ccc(F)cc2)C=C(C(=O)OCC)C1c1cccc(C(F)(F)F)c1
  29.2%, 20.3%
O=C(c1cc(C2CC2)nc2ccccc12)N1CCC1
  1.3%, 0.7%
CCOc1ccc(CN(C)C(=O)c2n[nH]c(=O)c3ccccc23)cc1
  1.3%, -9.3%
Cc1c(C)c2ccc(OCC(=O)OC(C)(C)C)c(C)c2oc1=O
  120.4%[activator], 24.1%
O=C(NC1CCCCC1)C1CC(c2ccc(F)cc2)=NO1 (centres undefined)
  76.9%[activator], 3.3%
O=C(O)Cn1nc(N2CCN(c3ccc(F)cc3)CC2)ccc1=O
  -24.4%, -10.4%
Cc1ccc(N(C(=O)COc2ccccc2C)S(=O)(=O)c2ccc(Cl)cc2)cc1
  -2.6%, 207.6%[activator]
CCc1ccccc1N(C)C(=O)c1cn(CC(C)C)c(=O)c2cc(OC)c(OC)cc12
  -20.0%, 21.4%
Fc1ccc(N/N=C/c2cccc(/C=N/Nc3ccc(F)cc3F)c2)c(F)c1
  33.6%[activator], 21.3%
O=C(CSC1=NCCS1)c1ccc2c(c1)OCCO2
  393.2%[activator], 81.2%[activator]
